VDR inh: inhibitors of human vitamin D receptor. P11473. VDR-SRC2-3 peptide fluorescence polarization, 2 h. Potency, µM, without a hit: max response, negative = inhibition, hits mostly inhibitors. actives 0.93% (n = 400,000). AID 504847; active = well fitted inhibition curve with a large enough effect; inconclusive = small, poorly fitted or top-dose-only effect, or another doubt; inactive = no such curve, though single readings can be large or run the other way; also: series mostly up to about 120 µM
Target sequence (P11473 whole entry, looked up): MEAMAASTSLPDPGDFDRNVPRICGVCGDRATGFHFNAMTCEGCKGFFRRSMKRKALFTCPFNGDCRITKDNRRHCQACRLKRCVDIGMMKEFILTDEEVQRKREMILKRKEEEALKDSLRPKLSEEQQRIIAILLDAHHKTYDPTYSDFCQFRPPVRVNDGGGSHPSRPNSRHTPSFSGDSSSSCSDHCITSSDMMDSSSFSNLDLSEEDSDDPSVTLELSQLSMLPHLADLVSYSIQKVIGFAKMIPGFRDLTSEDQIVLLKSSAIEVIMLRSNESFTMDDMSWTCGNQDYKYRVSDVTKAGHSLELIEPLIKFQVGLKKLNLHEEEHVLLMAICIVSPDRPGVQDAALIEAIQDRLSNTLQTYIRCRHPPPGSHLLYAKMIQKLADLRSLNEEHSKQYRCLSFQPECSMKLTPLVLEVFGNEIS
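Inhibition of the VDR/SRC2-3 peptide interaction is quantified by fluorescence polarization. Compounds (23 nl, pintool) incubate with the reagents for 2 hours at ambient room temperature.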
An asterisk follows results filed as active; ? = inconclusive; & = joins results of further samples. % is scaled to controls: 0 for no effect and ±100 for the full control effect; potency is read from the fitted curve at half-maximal effect.

VDR inh | SMILES
2.1% | C/C(=N\NC(=O)c1ccc(O)cc1)c1ccc2c(c1)Nc1ccccc1S2
-9.8% | COc1ccccc1NC(=O)c1sc2nc(C)c(C(=O)Nc3ccc(C)cc3C)c(-c3ccc(Br)cc3)c2c1N
-9.1% | O=C(Cn1nnc(-c2ccc(C(F)(F)F)cc2)n1)NCCc1ccccc1
-5.0% | Cc1ccccc1-n1nc2c(c1NC(=O)c1cc3ccccc3oc1=O)CS(=O)C2 (stereo unspecified)
? | O=C(/C=C/c1cccs1)c1cc(F)ccc1OC(=O)N1CCOCC1
-1.8% | COc1ccc(N2CCc3c(C)nc4c(OC)cc(OC)cc4c32)c(OC)c1
11.8% | O=C(CN1C(=O)NC2(CCCC2)C1=O)Nc1ccc(Cl)cc1F
7.7% | COCCNC(=O)c1cccc(OC2CCN(Cc3ccc(OC(F)F)cc3)CC2)c1
1.1% | COc1ccc(CNC(=O)C(OC(=O)c2nsc(Cl)c2Cl)C(C)C)cc1 (stereo unspecified)
10.7% | CC(C)Oc1ccc(CNC(=O)CCCn2c(=O)c3cccn3c3cccnc32)cc1
13.4% | CC(=O)c1ccc(NC(=O)CN(C)S(=O)(=O)c2cc3c(cc2Cl)NC(=O)CO3)cc1
? | CN1C(=O)/C(=C\c2ccc(N(C)C)cc2)OC1=S
-7.7% | CCO[C@H]1OC(C(=O)N2CCN(C)CC2)=C[C@@H](c2coc3ccccc3c2=O)[C@@H]1CCCO
1.5% | COc1cccc(CCNC(=O)c2c(O)nc3ccccn3c2=O)c1
-9.4% | Cc1cccc(-c2csc(N)c2C(=O)OC(C)C)c1
15.8% | CCCCn1c(=O)c2oc3ccccc3c2n(CC(=O)Nc2cc(C)ccc2C)c1=O
1.8% | Cc1ccc(-c2cc(Cc3ccncc3)c(=O)[nH]n2)cc1
7.2% | COc1ccc(CN2C(=O)CN(C3CCCCCC3)C(=O)C2c2ccc(OC)c(OC)c2)cc1 (stereo unspecified)
-0.6% | Cc1ccccc1-n1nc(C)c2cc(C(=O)NC3CC3)sc21
-6.9% | Cc1nn(-c2ccccc2)c(N2CCCC2)c1/C=N/NC(=O)c1cc(-c2ccccn2)nc2ccccc12
-20.6% | CCOC(=O)Nc1ccc2nc3n(c(=O)c2c1)CCCCC3
-12.8% | C=CCN1C(=O)CS/C1=N\N=C\c1cccc([N+](=O)[O-])c1
-4.3% | Cc1ccc(OCC(O)CN2CCN(CC(O)COc3ccc(C)cc3Cl)CC2)c(Cl)c1 (stereo unspecified)
-8.8% | Nc1nonc1C(=O)N1CCCC1
10.9% | COc1ccccc1CCNC(=O)NC1CCCCC1

The list goes on.
VDR inh | SMILES
-2.6%&-5.7% | COc1ccc(NC(=O)CCCN2C(=O)C(c3ccccc3)Oc3cccnc32)c(OC)c1 (stereo unspecified)
-7.0% | COC(=O)c1c(C)[nH]c(C(=O)CSc2ccc(Cl)cc2)c1C
-20.2% | Cn1nnnc1Sc1ncnc2scc(-c3ccccc3Br)c12
-0.9% | Cc1ccccc1N=Nc1ccc(O)c2ncccc12
-3.9% | Cc1csc(NC(=O)CSc2nnc(-c3cccs3)n2C)n1
-3.5% | CN(C(=O)COC(=O)c1ccc(NS(=O)(=O)c2cccs2)cc1)C1CCCCC1
-0.7% | CCn1cc(C(=O)N2CCN(c3cccc(C)c3C)CC2)c(=O)c2ccc(C)nc21
3.7% | CN(CCOc1ccc(Cl)cc1)C(=O)C1CCN(C(=O)c2ccc(F)cc2)CC1
6.1% | COC(=O)C1=CN(Cc2ccc(OC)c(OC)c2)C=C(C(=O)OC)C1c1cccs1
-5.5% | O=C(CSc1nnc(CNC(=O)c2ccccc2F)o1)NCc1ccco1
2.4% | O=C(OCC1CC(c2ccccc2)=NO1)c1ccco1 (stereo unspecified)
-12.7% | C/C(CC(=O)Nc1ccc(C)c(Cl)c1)=N\NC(=O)c1cccc(O)c1
-6.1% | O=C1COc2ccccc2N1Cc1ccc(Cl)cc1
-2.7% | COc1ccc(OC)c(/C=C/C(=O)Nc2ccc(OC)nc2)c1
-3.4% | COc1ccc(/C=C/C(=O)OCC(=O)NC2CC2)c(OC)c1
-11.2% | CCCOc1ccc(C2Nc3cccc4cccc(c34)N2)cc1
4.1% | Cc1ccc(C)c(NS(=O)(=O)c2cc(C(=O)NCc3ccncc3)ccc2C)c1
-13.5% | C#CCOc1ccccc1/C=C1/C(=O)ON=C1C
-18.6% | COc1ccc(C(=O)Oc2cc(OC)cc(OC)c2C(C)=O)cc1
20.2% | Cc1ccc(NC(=O)CS(=O)(=O)c2cn(CC(=O)N3CCOCC3)c3ccccc23)cc1
-14.9% | Cc1ccc(NC(=O)c2c(C)nc3sc(C(=O)Nc4ccc(F)cc4)c(N)c3c2-c2ccc(C)o2)c(C)c1
-18.8% | O=C(NCCc1c[nH]c2ccccc12)C(=O)c1c[nH]c2ccccc12
-17.4% | CCCCOC(=O)c1ccc(NC(=O)c2cc(-c3cccs3)on2)cc1
16.2% | CC(C)CN1CCc2nc(Nc3ccc(F)cc3F)ncc2C1
-7.3% | CCOc1ccc(N(CC(=O)Nc2nccs2)S(=O)(=O)c2c(C)[nH]c(=O)[nH]c2=O)cc1

Part of the list above in another layout.
> CCCCn1c(=O)c2oc3ccccc3c2n(CC(=O)Nc2cc(C)ccc2C)c1=O
  VDR inh = 15.8%
> Cc1ccc(-c2cc(Cc3ccncc3)c(=O)[nH]n2)cc1
  VDR inh = 1.8%
> COc1ccc(CN2C(=O)CN(C3CCCCCC3)C(=O)C2c2ccc(OC)c(OC)c2)cc1 (stereo unspecified)
  VDR inh = 7.2%
> Cc1ccccc1-n1nc(C)c2cc(C(=O)NC3CC3)sc21
  VDR inh = -0.6%

Next section
VDR inh | SMILES
-1.2% | CSCc1ccc(C(=O)NCc2ccc(F)cc2)cc1
2.3% | CCOc1ccc(Br)cc1S(=O)(=O)Nc1cccc(-c2ccc(OC)nn2)c1
8.9% | Cc1ccc(S(=O)(=O)Nc2nc3c(s2)C(=O)CC(C)(C)C3)cc1
13.5% | C=Cc1ccc(Cn2ccn(-c3ccc(F)c(F)c3)c(=O)c2=O)cc1
-5.9% | O=C(Nc1nc2ccccc2s1)C1CCCO1 (stereo unspecified)
0.8% | CC(C)C(NC(=O)c1cccs1)C(=O)NC1=NCCS1 (stereo unspecified)
2.2% | Cc1cc(=O)oc2cc(OCC(=O)NC3CCN(Cc4ccccc4)CC3)ccc12
3.7% | Cc1cccc(-c2nc3nc(C)cc(N4CCN(c5ccccc5)CC4)n3n2)c1
-13.2% | COc1ccc(C2C(=O)c3ccccc3C2=O)c(OC)c1
-9.6% | O=C(CSc1nnc2ccccn12)Nc1nsc(-c2ccccc2)n1
-5.9% | O=C(CC(c1cccs1)N1Cc2ccccc2C1=O)Nc1ccccc1 (stereo unspecified)
3.4% | O=C(COc1ccc(Br)cc1)NC1CC1
-0.3% | CCc1ccc(-n2c(=O)c3cccnc3n2CC(=O)NCc2ccc(C)cc2)cc1
-20.5% | CC1(C)Cc2cccc(OCC(=O)NC3CC3)c2O1
-1.1% | Cn1ccnc1C1CCCCN1Cc1nc(Cc2ccccc2F)no1 (stereo unspecified)
20.6% | CC1CCCC(NC(=S)Nc2cccc(S(=O)(=O)N(C)C)c2)C1C (stereo unspecified)
-2.0% | O=C(Nc1nnc2n1CCS2)c1ccccc1C(F)(F)F
? | Cn1c(/C=C/c2cccc([N+](=O)[O-])c2)c([N+](=O)[O-])c(=O)n(C)c1=O
79.4µM* | O=S(=O)(Cc1ccccc1)N=Nc1c(O)[nH]c2ccc(Br)cc12
-0.3% | O=C(NCc1ccccn1)c1ccc(N2CCCC2)c([N+](=O)[O-])c1
-14.9% | COC(=O)c1cn(-c2ccccc2)nc1-c1ccc(OC)c(OC)c1
8.7% | CCCCc1cc(=O)oc2cc(C)cc(OCC(=O)O)c12
-12.1% | Cc1nn(-c2ccccc2)c(Cl)c1/C=C(\CC(=O)O)c1nc2ccccc2s1
? | COc1ccc2[nH]c3c(c2c1)CCN1C(=O)C(CC(=O)NCCC2=CCCCC2)C[C@H](C(=O)N2CCOCC2)[C@@]31C (stereo partly specified)
-13.2% | NC(N)=NS(=O)(=O)c1ccc(NC(=S)NC(=O)c2sc3ccccc3c2Cl)cc1

In another format: results already given
smiles	VDR inh
O=S(=O)(Cc1ccccc1)N=Nc1c(O)[nH]c2ccc(Br)cc12	79.4µM*
O=C(NCc1ccccn1)c1ccc(N2CCCC2)c([N+](=O)[O-])c1	-0.3%
COC(=O)c1cn(-c2ccccc2)nc1-c1ccc(OC)c(OC)c1	-14.9%

Following part:
VDR inh | SMILES
17.5% | Cc1ccc(Cl)cc1NC(=O)C(C)n1nnc2sc3c(c2c1=O)CCCC3 (stereo unspecified)
8.1% | COc1ccc(N2CCN(CCCNC(=O)C3CCCN(S(=O)(=O)c4c(C)n[nH]c4C)C3)CC2)cc1 (stereo unspecified)
-9.4% | Cn1ncc(N=Cc2ccc([N+](=O)[O-])cc2)c1C(=O)N1CCOCC1
2.4% | O=C(NCCc1ccccc1)C1CCCN(S(=O)(=O)c2cccnc2)C1 (stereo unspecified)
-0.8% | O=C(NCCc1ccc(F)cc1)c1cccc(NC(=O)c2ccccc2)c1
6.5% | CCCN1C(=O)c2ccccc2NC1c1ccc(OC)c(CSc2ccccn2)c1 (stereo unspecified)
9.8% | COc1ccc(S(=O)(=O)NCCc2csc(C)n2)cc1C
-18.3% | Cc1c(C(=O)N2CCN(c3ccccc3)CC2)oc2c(Cl)cccc12
13.1% | Cc1ccc(COC(=O)c2cc(S(=O)(=O)N3CCOCC3)ccc2C)cc1
2.2% | CCCc1cc(=O)oc2cc(OCC(=O)NCc3ccccn3)ccc12
-17.8% | Cc1cccc(C(=O)NCc2ccc(S(N)(=O)=O)cc2)c1[N+](=O)[O-]
? | COc1ccc(/C=C/C(=O)Nc2cc(C)on2)cc1
-3.3% | O=C(O)CCCNC(=O)/C(=C\c1ccc(Cl)cc1)NC(=O)c1ccccc1Br
-14.1% | COc1cc2ccccc2cc1C(=O)Nc1ccc(O)cc1
-2.8% | Cc1ccc(NC(=O)C2CC(=O)N(c3ccc(OC(C)C)cc3)C2)cc1 (stereo unspecified)
-9.9% | Cc1cccc(NS(=O)(=O)c2ccc(C(=O)N3CCC3)cc2)c1C
25.8% | COc1ccccc1OCC(=O)Nc1ccc(S(=O)(=O)N2CCCCCC2)cc1
-8.5% | C=CCSc1nc(C)c(CC(=O)OCC(C)C)c(=O)[nH]1
-0.4% | CC(C)(C)CC(=O)Nc1nnc(SCC(=O)N2CCCCC2)s1
1.5% | CC1CCCC(C)N1C(=O)Cn1cc(/C=C2/C(=O)Nc3ccccc32)c2ccccc21 (stereo unspecified)
2.8% | O=C(NCCOc1ccccc1)c1cc2ccccc2o1
-18.8% | C/C(=N\Nc1cccc2cccnc12)c1ccc(C)cc1
-7.2% | O=C1CCCc2cc(S(=O)(=O)NCC3CCC(C(=O)NCc4ccc(F)cc4)CC3)ccc2N1 (stereo unspecified)
3.9% | O=C(COc1ccccc1)n1nc(-c2ccc(Cl)cc2)nc1NCc1ccco1
-1.8% | COc1ccccc1OCCCOc1ccc([N+](=O)[O-])cc1Cl

(listing goes on)
VDR inh | SMILES
-15.9%&16.9% | CN(C)S(=O)(=O)n1cc(/C=C(\NC(=O)c2ccccc2Cl)C(=O)NCCCn2ccnc2)c2ccccc21
? | COc1ccc(C(=S)N(C)C)cc1OC
-21.3% | Cn1nc(C(=O)Nc2nc3ccccc3[nH]2)ccc1=O
-13.9% | CCOC(=O)N1CCN(CC(=O)Nc2ccc(F)c(F)c2)CC1
13.5% | CN1CCN(c2ccc(NC(=O)c3ccc4ccccc4c3)cc2)CC1
24.9% | Cc1ccc(N(CC(=O)N(C)Cc2ccccc2)S(C)(=O)=O)cc1C
-24.8% | CCO/N=C(\C)c1c(O)cc(C(C)C)n(-c2ccccc2)c1=O
-7.8% | COc1ccc(OC)c(NC(=O)Cc2coc3ccc(C)cc23)c1
4.8% | COc1ccc(OCCCn2cc(/C=C3/C(=N)N4C=C(C)SC4=NC3=O)c3ccccc32)cc1
14.5% | CCOc1ccc(OCC)c(-c2c(=O)n(OCc3ccc(Cl)cc3)c3ccccc3[n+]2[O-])c1
-11.8% | CCOc1ccc(NC(=S)N2CCc3cc(OC)c(OC)cc3C2COc2ccc3c(C)cc(=O)oc3c2)cc1 (stereo unspecified)
0.2% | O=C(Cc1ccccc1)NN1CCCCC1
-12.3% | CCc1ccc(OCc2nnc(SCC(=O)Nc3cccc(C(=O)N4CCOCC4)c3)o2)cc1
1.2% | CC(C)CC(=O)NC(=S)Nc1ccc(F)cc1F
14.8% | O=c1oc2ccccc2c2c1cnc1ccccc12
12.6% | COc1cc2c(cc1OC)C(COc1cc(C)cc(C)c1)N(C(=O)c1ccc(S(=O)(=O)N3CCCC3)cc1)CC2 (stereo unspecified)
-26.0% | Cc1c(CNCCC2=CCCCC2)c(C(=O)O)c(C)n1Cc1ccccc1
-23.8% | Cc1ccc(NC(=O)C2CCN(S(=O)(=O)c3cccc4nsnc34)CC2)cc1F
-9.2% | O=C(NCC1CCCN1S(=O)(=O)c1cccs1)c1cccc(Cl)c1 (stereo unspecified)
? | Cc1nc(SCc2ccccc2)c2ccsc2n1
-13.1% | CCCn1c(=O)n(N)c2ccccc21
22.1% | Cc1cc(C)cc(OC(C)C(=O)Nc2nonc2-c2ccc(Br)cc2)c1 (stereo unspecified)
-3.8% | CC1=Nc2ccc(C)c3nc(C)cc(c23)N1c1ccc(C)cc1
-7.8% | CCOc1ccc(C(=O)C[n+]2ccccc2C)cc1
7.4% | COc1cccc2c1O/C(=N\O)C(C(=O)Nc1cccc(C)c1C)C2 (stereo unspecified)
-15.6% | Cc1c(NC(=S)NC(NC(=O)C(C)(C)C)C(Cl)(Cl)Cl)c(=O)n(-c2ccccc2)n1C (stereo unspecified)
2.5%&11.2% | O=S(=O)(NCc1ccc(F)cc1)c1ccc(-c2cnc(C3CC3)o2)cc1
7.7%&-9.6% | Cc1[nH]nc(N=CC2=C(O)CC(C)(C)CC2=O)c1-c1ccc(Cl)cc1

An excerpt, so the mix of outcomes need not match the whole.
